VACV Venus inh: qHTS for Stage-Specific Inhibitors of Vaccinia Orthopoxvirus: Venus Reporter Primary qHTS; Vaccinia virus Venus reporter expression, fluorescence; Potency, µM (doses to about 36.5 µM), inactives show top-dose activity change, negative = inhibition, most hits filed as inhibitors; 330,000 tested, 0.46% active; AID 720580, 2013; active means well fitted inhibition curve with a large enough effect; inconclusive means small, poorly fitted or top-dose-only effect; inactive means no such curve, though single readings can be large or run the other way; tested in A549 cells; also: nearly all actives have a fitted effect of over 30% in size; inactives centre near -10
Vaccinia mCherry: qHTS for Stage-Specific Inhibitors of Vaccinia Orthopoxvirus: mCherry Reporter Primary qHTS; Vaccinia virus mCherry reporter infection, fluorescence; about a quarter of the inactives have no number; Potency, µM (doses to about 36.5 µM), without a hit: top-dose activity change, negative = inhibition, hits mostly inhibitors; 310,000 tested, 0.63% active; AID 720579, 2013; active = well fitted inhibition curve with a large enough effect; inconclusive = small, poorly fitted or top-dose-only effect; inactive = no such curve, though single readings can be large or run the other way; tested in A549 cells; also: nearly all actives have a fitted effect of over 35% in size; inactives centre near -10
Numbers without * were called inactive; i = inactive; ? = inconclusive; / = no result given; [ ] = dose if it differs, or a comment. % is scaled to controls: 0 for no effect and ±100 for the full control effect; potency is read from the fitted curve at half-maximal effect.

SMILES	VACV Venus inh	Vaccinia mCherry
COc1cc(OC)c(-c2nc3c[n+](CC(=O)c4ccccc4)ccc3n2C)cc1OC	-7%	-8%
C=CC[C@@H](CC(=O)NCCO)C(=O)N[C@@H](C)COC(=O)[C@H](CC=C)CC(=O)OC(C)(C)C	?	-9%
CCOC(CNC(=O)c1ccc2c(c1)nc(C)n2-c1cccc(F)c1)OCC	-2%	-22%
COc1ccc(Cc2nnc(SCC(=O)N(c3ccccc3)C(C)C)n(N)c2=O)cc1	-14%	-16%
O=C1C=C(/C=C/C2C=CC=CC2)C[C@@H](c2ccc(Cl)cc2)C1 (stereo partly drawn)	?	-27%
CCc1c(C)sc2c1CCN(C(=O)Nc1ccccc1C(=O)OC)C2c1ccc(OC)cc1 (stereo not drawn)	-6%	-17%
CCOC(=O)c1c(C)[nH]c(C)c1S(=O)(=O)N1CCC(C(=O)Nc2ccc(C)cn2)CC1	-8%	-10%
CCc1ccc(NS(=O)(=O)c2ccc3oc(=O)ccc3c2)cc1	-20%	-24%
COCCCNC(=S)N/N=C/c1cccc(OC)c1O	?	?
Cc1ccc(-n2c(SCC(=O)N3CCCCC3)nc(O)cc2=O)cc1	-16%	-17%
COC(=O)c1ccccc1NS(=O)(=O)c1ccc(Cl)nc1	?	-24%
COc1ccc(C(=O)Nc2ccccc2SCc2cc(=O)c3cccc(C)c3[nH]2)cc1	-7%	7%
CCOC(=O)c1c(Cc2ccc(Cl)cc2)c[nH]c1C	32%[activator]	-7%
COc1ccccc1N1CCN(C2=Nc3cccc4cccc2c34)CC1	-7%	-9%
N#Cc1c(-c2ccccc2)cc(-c2ccccc2)nc1SCC(=O)NCC(=O)O	1%	-13%
CCOC(=O)[C@@H]1[C@H]2COc3ccc(Br)cc3[C@H]2N2C(=O)N(c3ccc(C)cc3)C(=O)[C@]12C	-7%	?
COc1ccc2ccccc2c1/C=N/NC(=O)c1cccc([N+](=O)[O-])c1	-13%	i
COc1ccc(C(NC(=O)C2CCN(Cc3cc(OC)cc(OC)c3)CC2)c2ccccn2)cc1 (stereo not drawn)	4%	-2%
CC(NC(=O)CCC(=O)Nc1ccccc1O)c1ccccc1 (stereo not drawn)	-17%[7.34 µM]	-4%[7.34 µM]
CN(C1CCCCC1)S(=O)(=O)c1ccc2c(c1)c(=O)c(C(=O)NCCCN1CCCC1)cn2C	-12%	-16%
CCCN(CCC)CC(O)COc1ccc([N+](=O)[O-])cc1 (stereo not drawn)	-4%	-8%
COC(=O)C[C@@H]1CC[C@H](NC(=O)c2cnccn2)[C@@H](CO)O1	-11%	-13%
COc1cc(C2Nc3cccc4cccc(c34)N2)cc(OC)c1OC(C)=O	-10%	/
C/C=C(\C)C(=O)Nc1cccc(C2=NOC3(C2)C[C@H](C(N)=O)N(C(=O)c2cc([N+](=O)[O-])cc([N+](=O)[O-])c2)C3)c1 (stereo partly drawn)	-5%	-18%
Cc1cccn2c(=O)c3cc(C(=O)NCCN4CCOCC4)c(=N)n(CCCN4CCOCC4)c3nc12	-9%	i
SMILES	VACV Venus inh	Vaccinia mCherry
O=C(O)/C(=C\c1ccccc1OC(F)F)Sc1nnc(-c2ccc(F)cc2)o1	-29%	?
COc1ccc(OC)c(-n2c(SCC(=O)Nc3cccc(S(N)(=O)=O)c3)nc3ccccc3c2=O)c1	-13%	-11%
COc1ccc(CC(=O)Nc2ccc(-c3ccc4nnc(C)n4n3)cc2)cc1OC	-9%	i
O=c1c2ccccc2ncn1CCCSc1ccc(Cl)cc1	-8%	i
C[C@H](CO)N1C[C@H](C)[C@@H](CN(C)CC2CCCCC2)Oc2c(NC(=O)C3CC3)cccc2C1=O	-24%	-2%
CC(c1ccccc1)n1c(-c2ccccc2F)n[nH]c1=S (stereo not drawn)	0%	i
CCCCn1c(N2CCCC2)nc2c1c(=O)[nH]c(=O)n2C	2%	-8%
Cc1ccc(-n2nc(C(=O)N/N=C/c3cccc(C(F)(F)F)c3)c3ccccc3c2=O)cc1C	-18%	/
COc1ccc(CCNC(=O)CC(C)(C)CC2=NS(=O)(=O)c3ccccc3N2)cc1OC	-3%	-13%
CC(C)NS(=O)(=O)c1ccc(OCC(=O)N2CCCC2)cc1	2%	i
CN(CCN1CCOCC1)C(=O)C1CCC(=O)N(Cc2ccc(Cl)cc2)C1 (stereo not drawn)	-17%	-24%
COc1ccc(C(=O)Nn2cnnc2)cc1OC	-15%	0%
Cc1c(C(=O)Nc2cccc(Cl)c2)oc2ccc(S(=O)(=O)N3CCOCC3)cc12	-21%	-16%
O=C(Cc1ccccc1)Nn1cnc2ccccc21	-10%	i
CC1(C(=O)NS(=O)(=O)c2ccccc2)CCN1C(=O)C1(c2ccccc2)CCCC1 (stereo not drawn)	-5%	20%
COc1cc(C(=O)NNC(=O)Cc2ccc(S(=O)(=O)N3CCOCC3)s2)cc(OC)c1OC	-8%	-17%
CCc1nnc(NC(=O)CSc2nc3c([nH]c4ccccc43)c(=O)n2CCOC)s1	-8%	-8%
COc1cc(NC(=O)c2cccnc2SC)cc(OC)c1OC	-2%	-8%
CC(C)C[C@@H](CNCC(=O)[C@H](CC(C)C)NC(=O)c1[nH]cnc1C(=O)N[C@@H](C)CN)NC(=O)c1nc[nH]c1C(=O)N[C@@H](Cc1ccccc1)C(=O)O	-6%	-1%
O=C(Cn1nnc2ccccc21)C1CC1	-7%	/
CC(=O)Nc1cc2c(cc1[N+](=O)[O-])OCCO2	2%	0%
O=C(CN1CCC(O)(c2ccc3c(c2)OCO3)CC1)NC1CCCCC1	-13%	?
COc1ccccc1CNc1nc(Oc2cccc(F)c2)c2sccc2n1	2%	?
c1ccc2c(-c3ccc4nncn4c3)cncc2c1	-21%	-8%
CSc1ccc(CNc2cccc3ccccc23)cc1	20%	-6%

3 entries from above, with each value named.
structure: COc1ccc(OC)c(-n2c(SCC(=O)Nc3cccc(S(N)(=O)=O)c3)nc3ccccc3c2=O)c1
  VACV Venus inh = -13%	Vaccinia mCherry = -11%
structure: COc1ccc(CC(=O)Nc2ccc(-c3ccc4nnc(C)n4n3)cc2)cc1OC
  VACV Venus inh = -9%	Vaccinia mCherry = i
structure: O=c1c2ccccc2ncn1CCCSc1ccc(Cl)cc1
  VACV Venus inh = -8%	Vaccinia mCherry = i

Additional structures:
SMILES	VACV Venus inh	Vaccinia mCherry
CCOC(=O)[C@@H]1[C@H]2COc3ccccc3[C@H]2N2C(=O)N(c3cccc(Cl)c3)C(=O)[C@]12C	-8%	-5%
C[C@@H](NC(=O)C1(c2ccccc2)CCN(C(=O)OC(C)(C)C)CC1)C(=O)N[C@@H](Cc1ccccc1)C(=O)O	6%	2%
CCOc1ccc(-c2cc(C(=O)NCCc3ccccc3)c3c(-c4ccc(C)cc4)[nH]nc3n2)cc1	-24%	-14%
S=C(NCCCn1ccnc1)Nc1ccc(Cl)cc1Cl	-2%	?
COc1ccc(-n2cnc(=S)[nH]c2=S)cc1	-6%	-23%
O=C(c1ccccc1)C(Nc1cccc([N+](=O)[O-])c1)c1ccccc1 (stereo not drawn)	-4%	?
NC(=O)c1ccc(NC(=O)COC(=O)c2ccc3c(c2)OCCO3)cc1	-3%	8%
Cc1nn(S(=O)(=O)c2cccs2)c(C)c1Sc1ccc([N+](=O)[O-])cc1	?	?
CC(=O)Nc1sc2c(c1-c1nc3ccccc3s1)CCN(C(C)C)C2	10µM*	13µM*
CCOC(=O)C1CCN(c2c(C(=O)c3ccc(OC)cc3)cnc3ccccc23)CC1	-1%	-16%
C=CCN(CC=C)C(=O)Nc1ccc(OCC)cc1	-2%	-10%
CCCn1cc(CN2CCC(N3CCC(C(=O)N4CCOCC4)CC3)CC2)c(C)n1	-8%	i
COc1ccc(/C(C)=N/NC(=O)c2cc(C)[nH]n2)c(OC)c1	-16%	-13%
CCOc1ccccc1NC(=O)CCc1c(C)nn(-c2ccc(N3CCOCC3)nn2)c1C	-7%	-10%
CN1/C(=C\C(=O)Nc2cccc(Cl)c2)C(C)(C)c2ccccc21	-10%	-23%
CN(CC(=O)Nc1ccc(Cl)c(C(F)(F)F)c1)C(=O)c1ccc(OCC2CCCO2)cc1 (stereo not drawn)	?	?
NC(=O)c1ccsc1NC(=O)CSc1nncs1	-3%	-9%
COc1ccc(C(=O)NCC(=O)N2CCN(C(=O)c3ccco3)CC2)cc1OC	-12%	-21%
COc1ccc(NC(=O)c2cccc3c2C(=O)c2ccc(-c4ccc(F)cc4OCc4ccccc4)cc2S3(=O)=O)cc1	?	-17%
CCCc1sc(N/N=C/c2ccccn2)nc1-c1ccc(Br)cc1	-9%	?
COc1ccc2c(c1)[C@H]1[C@H](CO2)[C@H](c2ccccc2)[C@]2(C)C(=O)Nc3ccc(Cl)cc3C(=O)N12	?	?
Cc1ccc(-c2cc(C(=O)OCC(=O)N(C)C3CCS(=O)(=O)C3)c3ccccc3n2)o1 (stereo not drawn)	2%	-12%
O=C(CC(=O)c1ccccc1)Nc1cc([N+](=O)[O-])ccc1Cl	-3%	i
CN1C(=O)N(CC(=O)N2CCN(S(=O)(=O)Cc3ccccc3)CC2)C(=O)C12CCCCC2	-13%	i
CCOC(=O)c1ccccc1NC(=O)N1CCN(Cc2cc(=O)n3nc(-c4ccccc4)sc3n2)CC1	-13%	15%

Another view of some results above.
molecule: CCCn1cc(CN2CCC(N3CCC(C(=O)N4CCOCC4)CC3)CC2)c(C)n1
  VACV Venus inh: -8%
  Vaccinia mCherry: i

molecule: CN1C(=O)N(CC(=O)N2CCN(S(=O)(=O)Cc3ccccc3)CC2)C(=O)C12CCCCC2
  VACV Venus inh: -13%
  Vaccinia mCherry: i

molecule: CCOC(=O)[C@@H]1[C@H]2COc3ccccc3[C@H]2N2C(=O)N(c3cccc(Cl)c3)C(=O)[C@]12C
  VACV Venus inh: -8%
  Vaccinia mCherry: -5%

molecule: O=C(c1ccccc1)C(Nc1cccc([N+](=O)[O-])c1)c1ccccc1 (stereo not drawn)
  VACV Venus inh: -4%
  Vaccinia mCherry: ?

Continued.
SMILES	VACV Venus inh	Vaccinia mCherry
COc1cc(C(=O)N2CCN(CCc3ccccn3)CC2)cc(OC)c1OC	-4%	-8%
CCn1cc(C(=O)NCCC(=O)NCCO)c(=O)c2cc3c(cc21)OCO3	-17%	-1%
CCO[C@@H]1OC(C(=O)NCc2ccccc2)=C[C@H](c2ccc3c(c2)OCO3)[C@H]1CCCO	-17%	-13%
COCc1cc(C)n(CC(=O)Nc2ccc(NC(C)=O)cc2)c(=O)c1C#N	3%	-2%
CC(c1ccco1)N(C(=O)COc1ccc(Cl)cc1)c1ccccn1 (stereo not drawn)	-15%	-18%
CCCc1nc2c(nnn2Cc2ccccc2Cl)c(=O)[nH]1	0%	-8%
CC(C)C(NS(=O)(=O)c1ccccc1)C(=O)N1CCN(C(=O)c2ccco2)CC1 (stereo not drawn)	-9%	i
O=C(Cc1nn[nH]n1)NCCC1=CCCCC1	5%	/
O=C(CNC(=S)NC(=O)c1ccccc1Br)c1ccccc1	-14%	-12%
CCOc1ccc(NC(=O)CN(C)CC(=O)Nc2ccccc2SC)cc1OCC	-16%	-13%
Cc1ccc(Cn2c(C)c(C(=O)NCc3cccs3)sc2=O)cc1	-3%	3%
O=C(COC(=O)Cc1ccccc1)Nc1ccc(F)cc1	-5%	i
Cc1ccccc1NC(=S)NCc1cccs1	-8%	/
CCOC(=O)N1CCN(c2ncnc3nc[nH]c23)CC1	-22%	?
CC(=O)CSc1ccc(C(=O)O)cn1	-8%	i
O=C(NC1CC2CCC(C1)N2Cc1ccco1)c1ccccc1 (stereo not drawn)	-7%	-11%
CN(C)C1=NC[C@H](Cc2ccccc2)N1CC1CCCC1	-13%	-11%
CCSc1nnc([C@@H](NC(=O)OC(C)(C)C)C(C)C)o1	-19%	i
CC1(C(=O)Nc2ccccc2F)CCN1C(=O)Cc1cc(F)ccc1F (stereo not drawn)	-1%	17%
CS(=O)c1ccc(/C=C2\C=Cc3ccccc32)cc1 (stereo not drawn)	4%	-17%
CCOC(=O)C1(C)CCCCCN1C(=O)c1ccccc1F (stereo not drawn)	0%	20%
Cc1cc(OC(C)C)nc(NCc2ccccc2)n1	?	/
COC(=O)c1ccccc1NC(=S)NC(=O)c1ccc2c(c1)OCO2	-12%	-3%
CSc1cccc(CN2CCN(CCC(C)C)C(CCO)C2)c1 (stereo not drawn)	0%	?
Cc1ccc(Cl)cc1N1CCN(C(=O)Cc2c(C(=O)O)c(C)cn2C)CC1	-7%	-5%
SMILES	VACV Venus inh	Vaccinia mCherry
CC(C)[C@H](NC(=O)OCc1ccccc1)C(=O)OCC(=O)NC1CCCCC1	3%	-4%
COc1cc(/C=N/n2c(-c3n[nH]c4c3CCC4)n[nH]c2=S)ccc1O	-1%	-15%
CC(O)(c1cccc(F)c1)c1nc(-c2cccc3cccnc23)cs1 (stereo not drawn)	-10%	3%
Cc1cc(CNCc2cn(C)nc2-c2ccc(Oc3ccccc3)cc2)on1	-20%	?
CC(C)CCNC(=O)c1onc(CSc2ccc(F)cc2)c1C(=O)NCCC(C)C	-21%	i
CCOc1ccc(Oc2ccccc2NC(=O)CCNC(C)=O)cc1	-9%	i
CS(=O)(=O)N(CC(=O)N1CCN(Cc2ccccc2)CC1)C1CCCCC1	1%	-14%
Cc1cccc(NC(=O)CS(=O)(=O)c2cn(C)c3ccccc23)c1	-18%	i
CC1=NOC(=O)/C1=C/c1ccc(O)cc1	-6%	-18%
CN(C)C(=O)c1ccc2c3c(cccc13)CC2	-1%	-2%
COC(=O)CN(c1ccccc1F)S(=O)(=O)c1ccc(C)cc1	7%	3%
Cn1c(C(=O)NCCCN2CCN(c3cccc(Cl)c3)CC2)cc2c(=O)n(C)c3ccccc3c21	-25%	-18%

From PubChem
